RecA splice inh: Mtb RecA intein splicing inhibitors, primary screen, biochemical, fluorescence, HTS. Protein RecA (Mycobacterium tuberculosis (strain ATCC 25618 / H37Rv)), P9WHJ3. cell-free RecA intein splicing. inhibition, %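 (about 9 µM by stock and volumes)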. 290,000 tested, 0.75% active. AID 2221, 2009; in the data active = inhibition above about 30%; inconclusive = no clear call, values can overlap the other calls;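 note: 0% = vehicle wells and 100% = reference inhibitor control wells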
Target sequence (P9WHJ3 whole entry, looked up, canonical isoform): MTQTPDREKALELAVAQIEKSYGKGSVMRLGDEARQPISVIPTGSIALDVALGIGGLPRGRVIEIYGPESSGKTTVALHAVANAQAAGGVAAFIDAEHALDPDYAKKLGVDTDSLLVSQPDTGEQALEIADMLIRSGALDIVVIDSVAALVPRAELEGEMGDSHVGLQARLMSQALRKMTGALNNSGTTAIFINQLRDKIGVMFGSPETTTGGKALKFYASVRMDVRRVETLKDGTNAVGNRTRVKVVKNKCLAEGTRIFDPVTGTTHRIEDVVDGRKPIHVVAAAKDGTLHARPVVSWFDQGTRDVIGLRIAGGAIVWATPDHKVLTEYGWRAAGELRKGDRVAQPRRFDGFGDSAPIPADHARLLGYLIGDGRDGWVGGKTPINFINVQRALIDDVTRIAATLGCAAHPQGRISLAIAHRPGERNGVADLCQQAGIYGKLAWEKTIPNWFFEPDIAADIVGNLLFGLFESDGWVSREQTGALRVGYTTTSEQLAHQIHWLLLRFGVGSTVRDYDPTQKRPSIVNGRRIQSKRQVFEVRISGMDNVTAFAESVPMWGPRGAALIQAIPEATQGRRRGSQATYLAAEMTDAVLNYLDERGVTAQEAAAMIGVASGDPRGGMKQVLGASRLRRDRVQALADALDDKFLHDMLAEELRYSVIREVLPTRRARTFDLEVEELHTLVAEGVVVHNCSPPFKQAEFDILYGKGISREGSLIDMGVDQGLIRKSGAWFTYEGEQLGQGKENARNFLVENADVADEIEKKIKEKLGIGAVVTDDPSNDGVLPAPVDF
Mtb bLac sens: beta-lactam sensitization of Mtb H37Rv, H37Rv. M. tuberculosis H37Rv growth with meropenem, percent inhibition; hits of this screen are not shown here. inhibition, % at 25 µM. 330,000 tested, 0.27% active. AID 434955, 2010;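 active = about 74% or more and at least 40 points above the plate without the antibiotic, then above 30% in a dose series; inconclusive = first-round hits that could not be retested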;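 note: growth measured after seven days incubation then overnight dye step; 0% = bacteria only wells and 100% = bacteria with antibiotic; twin plates without the antibiotic show which effects depend on it; some results filed as inactive read as strong as hits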
Arbovirus inh: antivirals against arbovirus infection, primary screen, cell-based, full library, 10K replicate subset; arbovirus infection cell-based antiviral screen; inhibition, % at 10 µM; 200,000 tested, 0.37% active;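 active = inhibition from about 30%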;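 note: bluetongue infection of BSR cells; cell survival read as ATP light after 72 h; 0% = infected wells without compound and 100% = uninfected wells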
YopH PTP inh: YopH tyrosine phosphatase inhibitors, primary screen, biochemical, fluorescence Ex485/Em525; 140,000 tested, 0.16% active; inhibition, %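 (about 10 µM by stock and volumes)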; YopH tyrosine phosphatase [Yersinia enterocolitica]; AID 898, 2007;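 active = inhibition of 50% or more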;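 note: controls were vehicle for no effect and minimum signal wells for full effect; inactives centre near -20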
Mtb growth: M. tuberculosis H37Rv growth inhibitors, H37Rv strain (AID 1626); 220,000 tested, 0.95% active; M. tuberculosis H37Rv growth inhibition; higher % means a stronger effect; inhibition, % at 10 µM; hits with a dose series show IC50 in µM;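 active = confirmed in a dose series; inconclusive = inhibition above 80% but not taken into the dose series; inactive = below 80% or under 30% at every dose of the series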;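 note: bacteria incubated seven days before Alamar blue readout; 0% = bacteria only wells and 100% = bacteria with antibiotic wells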
* = called active by the depositor; ? = inconclusive; / = no result given.

SMILES	RecA splice inh	Mtb bLac sens	Arbovirus inh	YopH PTP inh	Mtb growth
Cc1ccc(SCCNC(=O)/C=C/c2ccc(Cl)cc2)cc1	-0.9	-3	8	-13	-5%
O=C1C(=O)N(CCCn2ccnc2)C(c2ccc(Br)cc2)/C1=C(\O)c1ccc2c(c1)OCCO2 (stereo not given)	0.6	-2	/	/	/
COc1ccc(N2CC(O)=C(c3nc(-c4ccc(F)cc4)cs3)C2=N)cc1Cl	2.5	-2	0	/	4%
O=C1c2ccccc2C(=O)N1Cc1cc(-c2ccccc2Cl)no1	4.0	-2	-5	9	-9%
C/C(CC(=O)Nc1cccc2c1CCCC2)=N\NC(=O)c1cccc2ccccc12	3.5	3	-5	-30	7%
O=C(CSc1ncnc2c1cnn2-c1ccccc1)Nc1ccc2c(c1)OCO2	1.4	/	-20	-49	/
Cc1ccc(NC2=NC(c3ccc(F)cc3)n3c(nc(C)cc3=O)N2)cc1 (stereo not given)	1.3	-1	/	/	-8%
Cc1ccc(S(=O)(=O)CCC(=O)Nc2cccc([N+](=O)[O-])c2)cc1	-1.1	-2	5	/	1%
Cc1ccc(C)c(N2CCN(C(=O)c3csc4ccccc34)CC2)c1	16	-1	8	-18	9%
O=C(N1CCCCC1)N1CCN(S(=O)(=O)c2ccc(Cl)cc2)CC1	-1.5	-1	0	/	3%
COc1ccc(NC(=O)c2csc3c2CCCC3)cc1	2.2	17	-4	-22	6%
CCN(CC)S(=O)(=O)c1c(OC)cc(C)c(Cl)c1C	6.3	3	-14	/	-9%
C[C@@H]1C[C@@H]2OC(=O)[C@]3(C)[C@H]2[C@@H](OC3(C)O)[C@]2(C)C(=O)C=C[C@H]12 (stereo not given in full)	5.2	-3	/	/	-4%
COc1cccc(-n2cc(CNCc3c(C(=O)N(C)C)nc4ccc(Cl)cn34)cn2)c1	1.4	-8	-1	/	-7%
CCOc1ccc(NC(=S)NNc2ccnc3cc(Cl)ccc23)cc1	-4.4	66	6	/	?
Cc1cccc(-n2c(C)nc3ccccc3c2=O)n1	-1.0	-9	9	-20	-1%
O=C(Cn1cnc2c(cnn2-c2ccccc2)c1=O)Nc1cc(S(=O)(=O)N2CCOCC2)ccc1Cl	-0.5	-5	-8	-1	-5%
COc1cccc(CNC(=O)CCn2c(=O)c3cccn3c3cccnc32)c1	-0.9	-3	/	/	/
CCCCCCCCCCn1ccc(=N)cc1	3.2	-1	/	/	/
COc1cc(C)c(CN2CCSCC2)cc1C	-0.4	-7	/	/	/
CN(C)S(=O)(=O)c1cccc(C(=O)NC2CCSc3ccccc32)c1 (stereo not given)	-1.2	-4	/	/	/
C/C(=N\NC(=O)Cc1ccc(F)cc1)c1ccc(F)cc1	1.9	1	3	-15	-6%
CCCCCCCN1C2=NCCN2c2ccccc21	0.1	-13	/	/	-6%
CCOc1ccc(S(=O)(=O)n2nnc3ccccc32)cc1C	-0.2	-9	0	-18	-4%
O=c1[nH]c(=O)n(Cc2ccco2)c(O)c1C=NCCN1CCNCC1	-17	-2	/	/	-6%
O=S1(=O)CCC(NC(=S)N2CCOCC2)C1 (stereo not given)	-8.7	-3	3	-15	5%
Nc1nc(N2CCN(c3ccc(Cl)cc3)CC2)n[nH]1	-3.5	3	3	/	7%
COc1cc(/C=C/C(=O)Oc2coc(CSc3ncccn3)cc2=O)cc(OC)c1OC	-1.5	3	-3	/	4%
CC1CCCCN1C(=O)CCS(=O)(=O)c1cccc2nonc12 (stereo not given)	-1.0	-10	-2	/	-7%
COc1ccc(OC)c(N=Cc2c(O)n(Cc3ccccc3)c(=S)[nH]c2=O)c1	-32	10	/	/	4%

2 entries from above, reformatted.
SMILES | RecA splice inh | Mtb bLac sens | Arbovirus inh | YopH PTP inh | Mtb growth
Nc1nc(N2CCN(c3ccc(Cl)cc3)CC2)n[nH]1 | -3.5 | 3 | 3 | / | 7%
COc1cc(/C=C/C(=O)Oc2coc(CSc3ncccn3)cc2=O)cc(OC)c1OC | -1.5 | 3 | -3 | / | 4%

The listing picks up with the six entries that preceded the break.
SMILES	RecA splice inh	Mtb bLac sens	Arbovirus inh	YopH PTP inh	Mtb growth
O=c1[nH]c(=O)n(Cc2ccco2)c(O)c1C=NCCN1CCNCC1	-17	-2	/	/	-6%
O=S1(=O)CCC(NC(=S)N2CCOCC2)C1 (stereo not given)	-8.7	-3	3	-15	5%
Nc1nc(N2CCN(c3ccc(Cl)cc3)CC2)n[nH]1	-3.5	3	3	/	7%
COc1cc(/C=C/C(=O)Oc2coc(CSc3ncccn3)cc2=O)cc(OC)c1OC	-1.5	3	-3	/	4%
CC1CCCCN1C(=O)CCS(=O)(=O)c1cccc2nonc12 (stereo not given)	-1.0	-10	-2	/	-7%
COc1ccc(OC)c(N=Cc2c(O)n(Cc3ccccc3)c(=S)[nH]c2=O)c1	-32	10	/	/	4%
Cc1ccc(NCCCCO)cc1C	-0.4	-2	0	/	2%
COc1ccc(C2CCCN2C(=S)Nc2c(C)cccc2C)cc1OC (stereo not given)	-0.7	-3	-1	/	-3%
O=C(Nc1ccc(Cl)c(Cl)c1)Nc1cc(S(=O)(=O)N2CCOCC2)ccc1N1CCCC1	8.2	2	-20	-32	2%
COc1ccc(-c2[nH]ncc2CN(C)CCCN2CCOCC2)cc1F	3.4	-2	3	/	3%
CCc1cc(Br)ccc1NC(=O)C1CCCO1 (stereo not given)	-0.1	/	1	-10	-2%
CCCCn1c(O)c(C(CC)=NCCN2CCOCC2)c(=O)[nH]c1=O	0.8	-6	11	-3	-9%
COc1ccc(S(=O)(=O)Nc2ccccc2C)cc1	-2.4	2	-17	-13	5%
Cc1nn(-c2ccccc2)c(N2CCCC2)c1/C=N/NC(=S)Nc1ccc(F)cc1	2.5	2	/	/	/
Cc1ccc(C(=O)CC(C(=O)O)n2ccc(C)n2)cc1 (stereo not given)	0.5	2	3	6	-1%
COc1ccc(C)cc1NS(=O)(=O)c1ccc2c(c1)CCN2C(C)=O	2.4	6	/	/	/
Cc1ccc(Cl)cc1NC(=O)C1CCCN(c2cnccn2)C1 (stereo not given)	1.3	-10	/	/	/
O=C(O)c1ccc(NC(=O)c2cccc(C(=O)Nc3ccc(C(=O)O)cc3)c2)cc1	-4.0	4	/	/	/
CN1CCN(S(=O)(=O)c2cccc(C(=O)Nc3sc4c(c3-c3nc5ccccc5[nH]3)CCCC4)c2)CC1	-6.5	82	-9	-31	62%
COc1cc(NC(=S)N2CCC(C(N)=O)CC2)c(OC)cc1Cl	1.3	2	2	/	1%
Cc1[nH]nc2c1C(c1ccc(O)cc1)C1=C(CC(C)(C)CC1=O)N2 (stereo not given)	2.0	-10	11	/	-3%
CCCNC(=O)c1cc(-c2ccc3c(c2)OCO3)on1	-1.5	0	/	/	/
CCC[n+]1c2ccccc2cc2ccccc21	-73	-6	/	/	/
CSCCC(N=C(NS(=O)(=O)c1ccccc1)c1ccccc1)C(=O)O (stereo not given)	-0.7	1	/	/	-13%
Cc1ccc(C)c(NC(=O)CCN2CCN(c3ccccc3F)CC2)c1	-131	9	/	/	/
CCOc1ccc(NC(=O)CN2CCc3cc4c(cc3C2)OCCCO4)cc1OCC	1.9	-1	/	/	/
Cc1cc(OCC(=O)O)c2cccc(C)c2n1	0.3	28	5	-41	-6%
COc1nnc(-c2ccccc2)s1	-1.8	6	-3	-24	0%
COc1ccc(Cl)cc1-c1nc(SCC(N)=O)n[nH]1	-1.7	1	/	/	/
C=C1CCN([C@@H](Cc2ccccc2)C(=O)NCCC(C)C)S(=O)(=O)c2ccccc21	5.8	-13	/	/	0%
O=C(N/C(=C\c1ccc([N+](=O)[O-])cc1)C(=O)N1CCCCC1)c1ccccc1Br	-2.2	-4	7	-25	-3%
COc1ccc(C2(C(=O)N3CCCC3)CCOCC2)cc1OC	-2.8	2	16	-44	-13%
COc1ccc2cc(C(=O)OC(C)C)sc(=O)c2c1OC	-2.9	26	-1	4	3%
CC1CCN(C(C)C(=O)Nc2ccccc2-c2ccccc2)CC1 (stereo not given)	-0.1	-3	4	6	-11%
Cc1ccc(N=Nc2c(=O)[nH]n3c(C)cc(C)nc23)cc1	5.2	95	-8	-27	-4%
O=C(NC(Cc1ccccc1)c1nc2ccccc2[nH]1)c1cccc([N+](=O)[O-])c1 (stereo not given)	1.3	-7	/	/	1%
COc1cccc(/C=N/NC(=O)C(=O)Nc2ccccc2OC(F)(F)C(F)F)c1O	-3.1	8	-21	-50	9%
CCCCN(C)C1CCN(C(=S)Nc2cccc(OC)c2)CC1	-11	-7	0	/	6%
O=C(c1c(Cl)cccc1Cl)N1CCN(c2cccc3[nH]ccc23)CC1	2.0	1	/	/	-3%
CCOC(=O)CC(C(=O)OCC)P(=O)(c1ccccc1)c1ccccc1 (stereo not given)	1.0	15	1	-29	-2%
Cc1ccsc1C(=O)OCC(=O)Nc1c(C)n(C)n(-c2ccccc2)c1=O	0.3	1	-11	-13	3%
CN(CC(=O)Nc1ccc([N+](=O)[O-])cc1Br)Cc1c(F)cccc1Cl	0.8	-11	/	/	2%
NC(=O)c1ccccc1NC(=O)CN1CCOCC1	-0.9	1	7	-47	0%
CCOC(=O)Cc1csc(NC(=S)NC(=O)c2cc(OC)cc(OC)c2)n1	0.2	4	-5	/	2%
CSc1nsc(N/N=C/c2ccc3c(c2)OCO3)c1C#N	0.6	4	3	/	0%
CCn1c(=O)c(C(=O)NCCCc2ccccc2)c(O)c2ccccc21	5.3	1	/	/	/
N=C(N)SCc1cn2ccccc2n1	-1.6	-7	-4	-24	3%
O=C(Cc1ccc(Cl)c(Cl)c1)Nc1ccccc1N1CCCC1	0.4	2	/	/	/
O=C(CN1C(=O)/C(=C\c2cccc(Cl)c2)Sc2ccccc21)NCCCN1CCOCC1	-4.8	3	/	/	/
COc1ccccc1NC(=O)CS(=O)(=O)c1cccc2nsnc12	3.8	60	-3	-4	0%
Cc1ccc(/C=C/c2nc3ccccc3c(=O)[nH]2)cc1	-2.7	-10	/	/	1%
Cc1cc(C)n2nc(C(=O)NCc3cccc(C(F)(F)F)c3)nc2n1	4.2	-14	-18	/	-9%
Cc1noc(COc2ccccc2OCC(N)=O)n1	-1.6	-4	/	/	/
COC(=O)c1sccc1NC(=O)CNC(=O)c1ccccc1	-1.5	-1	4	/	4%
O=C(/C=C/c1ccc(Cl)cc1)Nc1ccccc1N1CCOCC1	0.3	5	-2	-16	10%
Cc1ccc(C=Nc2ccccc2C(=O)Nc2ccccc2)cc1	-3.9	0	-16	-10	0%
COc1ccc(/C=C(\C#N)C(=O)OCC(=O)NC(C)c2ccccc2)cc1 (stereo not given)	0.6	-8	3	2	8%
CCN(C(=O)/C=C/c1cc(OC)c(OC)c(OC)c1)C1CCCCC1	-1.1	12	/	/	/
Cc1cccc(C)c1OCc1cc(C(=O)N(C)Cc2nc3ccccc3[nH]2)no1	2.4	?	/	/	/
C=CCn1c(-c2csc(-c3ccccc3)n2)n[nH]c1=S	2.5	-5	1	-28	9%
Cc1cc(NC(=O)Cn2nnc(-c3ccccc3N)n2)no1	0.9	7	3	-9	11%
N#C/C(=C(/O)c1ccco1)c1nc2ccccc2[nH]1	-1.2	51	-6	/	25%
COc1ccc2c(c1)[nH]c1c(=O)n(CCN3CCOCC3)cnc12	-1.7	-5	/	/	-7%
COc1ccccc1C(=O)Nn1cnnc1	-2.0	-9	/	/	/
O=C(CSc1ccc2ccccc2n1)c1ccccc1	8.0	-6	/	/	-5%
CSC1=C(C#N)C(c2ccccc2)C(C(C)=O)=C(C)N1 (stereo not given)	0.3	1	-5	/	3%

(further entries)
SMILES	RecA splice inh	Mtb bLac sens	Arbovirus inh	YopH PTP inh	Mtb growth
Nc1c(S(=O)(=O)c2ccccc2)c2nc3ccccc3nc2n1/N=C/c1cccc(O)c1	5.5	78	-29	-32	68%
Nc1nc(CN2CCN(c3ccccn3)CC2)nc(Nc2ccc(Cl)cc2)n1	6.2	87	-13	-42	-7%
Cc1ccc(-c2nnc(N3CCN(C(=O)CSc4ncn[nH]4)CC3)c3ccccc23)cc1	/	-3	10	-20	12%
O=C(CSCc1c(Cl)cccc1Cl)NCc1ccccn1	-1.5	-5	1	/	-8%
Cn1c(N)c(C(=O)CN2CCc3ccccc3C2)c(=O)n(C)c1=O	2.9	-1	13	/	-4%
CCN1CCCC1CNCc1ccc(OCc2ccc(Cl)nc2)c(OC)c1 (stereo not given)	0.0	-5	/	/	5%
CC(C)N1CCN(Cc2cc3ccccc3[nH]2)CC1CCO (stereo not given)	-0.7	-6	/	/	/
Cc1ccc(S(=O)(=O)CNC(=S)c2cccc(C)c2)cc1	0.3	18	-3	-30	-6%
CCN(CC)CCCC(C)NC(=O)c1ccc(C(F)(F)F)cc1 (stereo not given)	1.3	2	-2	/	-15%

Screening data deposited in PubChem by several laboratories.

The list is partial; rates above refer to the full screens.
